T cruzi repl – T. cruzi replication inhibition | T. cruzi beta-gal in NIH3T3, luminescence, 90 h | inhibition, % (concentration not given with the values) | 300,000 tested, 1.4% active | AID 1885;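 active = mean inhibition across valid replicates above about 55%, limit read from the data; inconclusive = mean below that limit but half or more replicates reach it; inactive = mean below it, under half of replicates reach it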;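 also: signal also drops with host cell toxicity which is not excluded here; 0% = plate median of DMSO wells and 100% = zero luminescence signal; higher percent means less beta-gal luminescence so fewer parasites; stock transfer was 50 nL into about 50 µL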
ALR H2O2 inh – inhibitors of human sulfhydryl oxidase ALR; purified ALR, DTT oxidation, H2O2 HRP-luminol luminescence; AID 485317; 290,000 tested, 3.8% active; P55789; inhibition, % (no concentration beside the values);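 active = mean and each replicate at 75% or more; inconclusive = only one of the two met; inactive = neither met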;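 also: stock transfer was 7.5 nL into about 7.5 µL; 0% = neutral wells and 100% = wells with inactivated enzyme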
Target sequence (P55789 whole entry, looked up): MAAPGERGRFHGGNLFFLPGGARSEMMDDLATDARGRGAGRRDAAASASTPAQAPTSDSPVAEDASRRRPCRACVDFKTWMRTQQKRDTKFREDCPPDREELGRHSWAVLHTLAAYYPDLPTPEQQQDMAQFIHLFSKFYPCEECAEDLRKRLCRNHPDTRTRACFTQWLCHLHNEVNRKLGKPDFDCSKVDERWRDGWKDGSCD
FGF22 binding – binders of recombinant human FGF22 by thermal shift | Q9HCT0 | SYPRO orange fluorescence; percent of sucrose octasulfate shift, DMSO zero | 340,000 tested, 1.5% active | calls only at 9.99 µM;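 active = melting point raised past a set limit in the mean and every replicate; inconclusive = no clear call; three in four hits are not shown here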
Target sequence (Q9HCT0 whole entry, looked up): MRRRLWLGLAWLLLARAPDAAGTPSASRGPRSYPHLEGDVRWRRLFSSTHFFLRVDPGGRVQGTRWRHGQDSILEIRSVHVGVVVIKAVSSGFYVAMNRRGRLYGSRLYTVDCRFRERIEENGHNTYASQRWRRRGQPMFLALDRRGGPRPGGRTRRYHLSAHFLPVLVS
RanGTP-Imp inh – inhibitors of RanGTP-importin-beta interaction, primary screen, biochemical, FRET, CFP-Ran, YFP-importin-beta, homogeneous; cell-free CFP-Ran/YFP-importin-beta FRET ratio; AID 2216; inhibition, % (concentration not given with the values); 300,000 tested, 1.1% active;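 active = most replicates above 15%; inconclusive = exactly half above 15%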;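 also: 0% = DMSO wells and 100% = Ran loaded with GDP instead of GTP; wells of about 40 µL received 100 nL stock; the first replicate is given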
AF4-AF9 inh – MLL-AF4/AF9 protein interaction inhibition; P42568; inhibition, % at 10 µM; AID 651704; 350,000 tested, 0.47% active; AlphaScreen, biotin-AF4 peptide binding to FLAG-AF9;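 active = every replicate reaching a set inhibition limit, whatever the replicate mean, cut at about 25% in these data; inconclusive = mean inhibition reaches that limit but some replicates miss it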;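 also: 0% = plate neutral control median and 100% = total signal loss; the record names both 10 and 1 µM as test concentration; the first replicate is given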
Target sequence (P42568 whole entry, looked up): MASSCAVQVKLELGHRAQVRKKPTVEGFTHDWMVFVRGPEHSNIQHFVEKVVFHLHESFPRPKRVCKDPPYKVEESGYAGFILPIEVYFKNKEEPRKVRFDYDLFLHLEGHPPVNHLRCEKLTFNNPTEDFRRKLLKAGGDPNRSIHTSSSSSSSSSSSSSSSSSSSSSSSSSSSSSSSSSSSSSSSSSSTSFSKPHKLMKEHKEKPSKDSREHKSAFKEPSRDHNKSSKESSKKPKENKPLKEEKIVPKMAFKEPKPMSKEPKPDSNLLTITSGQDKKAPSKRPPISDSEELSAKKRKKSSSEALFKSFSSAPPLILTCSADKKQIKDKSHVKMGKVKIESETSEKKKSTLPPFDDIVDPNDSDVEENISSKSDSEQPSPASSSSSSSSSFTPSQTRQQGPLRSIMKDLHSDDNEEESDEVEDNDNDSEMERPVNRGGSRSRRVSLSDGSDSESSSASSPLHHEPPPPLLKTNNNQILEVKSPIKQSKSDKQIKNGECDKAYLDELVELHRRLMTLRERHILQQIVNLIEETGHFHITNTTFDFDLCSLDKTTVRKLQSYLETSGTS
rRNA inh HTS – inhibits bacterial ribosomal RNA function over humanized ribosomes; E. coli WT GFP vs humanized-ribosome RFP mutants, fluorescence, 24 h; active compounds read low; DMSO median 0, no signal -100; AID 720706; 350,000 tested, 1.6% active; GFP signal change (wild-type ribosome), % (test concentration not listed);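 active = significant combined selectivity score with lowered wild-type GFP, culture density cut under 30%, mutant RFP and density less affected; inactive = any of these conditions unmet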; also: one replicate is shown; some compounds called inactive have numbers as strong as hits
Calb FLC – C. albicans growth modulation with fluconazole. growth inhibition, % (concentration not given with the values). C. albicans CaCi-2 (fluconazole-resistant clinical isolate) + fluconazole, Alamar Blue growth, 48 h. AID 1979. 300,000 tested, 0.57% active;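 active = most replicates above 75%; inconclusive = exactly half above 75%; inactive = most below 75%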;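 also: all wells also contain fluconazole at 8 µg/ml as a sub-toxic cotreatment; 0% = median of DMSO wells and 100% = median of geldanamycin control wells; wells of about 8 µL received 7.5 nL stock; the first replicate is given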
Beta apoptosis – blocks beta cell apoptosis; INS-1E cytokine-induced death, ATP luminescence, 48 h; percent of positive-control rescue, neutral wells zero; protection from apoptosis, % (test concentration not listed); 300,000 tested, 0.8% active;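 active = all replicates at 75% or more, or half of them and the mean; inconclusive = half reach 75% but not the mean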;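 also: 0% = cytokine-treated negative control wells and 100% = positive control rescue; higher means more ATP so stronger rescue from cytokine killing; wells of about 40 µL received 100 nL stock; the first replicate is given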
rRNA inh HTS OD600 – recorded beside rRNA inh HTS, whose call it bears; OD600 change, %; measured here: OD600 growth;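 optical density of the mix in the first replicate; 0 = DMSO median and -100 = no signal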
rRNA inh HTS RFP – further read-out of rRNA inh HTS, marked with its call; RFP signal change, %; measured here: RFP humanized mutant strains;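 first replicate; 0 = DMSO median and -100 = no signal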
Numbers without * were called inactive; i = inactive; ? = inconclusive; nt = no result given; & = joins results of further samples.

SMILES	T cruzi repl	ALR H2O2 inh	FGF22 binding	RanGTP-Imp inh	AF4-AF9 inh	rRNA inh HTS	rRNA inh HTS OD600	rRNA inh HTS RFP	Calb FLC	Beta apoptosis
CCC(=O)N1c2ccccc2NC2=C(C(=O)CCC2)C1c1ccco1 (stereo not drawn)	-6	-8	nt	0.6	-3.5	19	13	-0.4	-14	-6
CCOC(=O)/C=C/C(=O)Nc1ccc(S(=O)(=O)N2CCc3ccccc32)cc1	7	-9	i	-2.7	0.9	12	-3	5.2	-10	-11
O=C(COC(=O)C1CCN(S(=O)(=O)c2ccc3c(c2)OCCO3)CC1)Nc1cccc2ccccc12	-10	-3	nt	0.7	nt	nt	nt	nt	21	-17
CN(C)C(=O)/C(=C\c1cccc(Oc2ccccc2)c1)NC(=O)c1ccccc1	-11	-6	i	?	-5.9	-17	-20	0.6	-19	nt
CCN(CC)S(=O)(=O)c1cc(NC(=O)CSc2nccn2C)ccc1C	2	?	i	4.7	0.6	-10	-18	-3.6	2	-1
COc1ccc(C(c2sc3nc(C)nn3c2O)N2CCC(O)CC2)cc1OC (stereo not drawn)	-6	-7	i	3.6	-0.2	13	12	-0.3	-2	-1
CC(C)C1Nc2ccc(S(N)(=O)=O)cc2C2C=CCC21 (stereo not drawn)	-11	-39	nt	-4.9	nt	nt	nt	nt	-5	0
Cc1nnc(SCC(=O)NCC2CCCO2)n1Cc1ccccc1 (stereo not drawn)	nt	-1	i	nt	-2.8	4	10	-4.6	nt	1
COc1ccc(CN2CCN(S(=O)(=O)c3ccc(F)cc3)CC2)c(OC)c1OC	3	2	nt	9.1	nt	nt	nt	nt	-6	-4
COc1ccc(/C=N/NC(=O)c2cccnc2)cc1COc1ccc(NC(C)=O)cc1	-2	-4	i	1.4	-0.5	-10	-12	-0.1	-4	6
Cc1cc(Br)cc2c1NC(=O)C2(O)CC(=O)c1ccco1 (stereo not drawn)	-9	3	i	-1.5	-3.7	5	9	1.1	1	-13
CN(C)S(=O)(=O)c1ccc2c(c1)C(CC(=O)O)OC2=O (stereo not drawn)	-6	-9	nt	0.1	nt	nt	nt	nt	-17	-5
O=C1C2C3C=CC(CC3)C2C(=O)N1c1ccc(Cl)cc1 (stereo not drawn)	-19	1	i	5.7	3.6	14	13	-0.7	-3	nt
CCc1nnc(N/N=C/c2cc(Br)c(O)cc2O)n1N	-2	83*	i	5.6	1.5	-9	-9	-11	22	-4
N/C(Cc1nc2ccccc2s1)=N\O	27	3	i	85*	-9.1	-3	-2	60	3	-6
CN(C)c1ccc(/C=C(\C#N)C(=O)OCC(=O)N(C)C2CCS(=O)(=O)C2)cc1 (stereo not drawn)	nt	1	i	nt	-55	-2	4	46	nt	?
CCOC(=O)Cc1cc(-c2ccccc2)nc2ccc3ccccc3c12	19	-3	nt	-1.1	nt	nt	nt	nt	5	5
O=C(COC(=O)c1ccccc1)Nc1ccccc1Sc1ccccc1	-9	4	nt	?	nt	nt	nt	nt	7	nt
CCN1C(=O)[C@H]2[C@@H](c3ccc(-c4ccc(F)cc4)cc3)N[C@@](C)(C(=O)OC)[C@H]2C1=O	nt	9	i	nt	0.3	-23	-37	4.7	nt	-7
Cc1cccc(Nc2nc(N)nc(CCl)n2)c1	68*	14	i	0.9	nt	-2	2	3.3	-1	-10
COC(=O)c1cnc(NNS(=O)(=O)c2ccc(C(F)(F)F)cc2)nc1C(F)(F)F	6	?	i	3.4	-18	6	12	2.5	5	0
COc1ccc(C(=O)NCC(=O)OCC(=O)c2ccc3c(c2)OCCO3)cc1	-3	-2	nt	-0.4	nt	nt	nt	nt	-20	-6
Fc1cccc(Nc2ncnc3sc4c(c23)CCC4)c1	-5	12	nt	2.0	nt	nt	nt	nt	13	8
CC(C)Sc1nc2sc3c(c2c2nnc(SCC(=O)NCc4ccco4)n12)CCCC3	11	4	nt	-2.3	nt	nt	nt	nt	3	2
CC(C)(O)c1cn(-c2nonc2N)nn1	-10	-1	nt	-1.9	nt	nt	nt	nt	-1	-3
Cc1ccc(Cn2nnc3c(=O)n(CC(=O)N4CCCc5ccccc54)cnc32)cc1	18	-11	nt	-1.1	nt	nt	nt	nt	16	-1
CCOc1cc(CNCc2cccs2)cc(Br)c1OC	9	-4	nt	2.6	nt	nt	nt	nt	-5	0
COc1ccc(F)cc1S(=O)(=O)NC1CCCC1	-3	0	nt	0.2	nt	nt	nt	nt	-24	-8
C/C(=N\NC(=O)c1sccc1-n1cccc1)c1cccs1	-8	-5	i	-3.9	8.3	7	6	2.5	38	-13
COc1ccc(OC)c(-n2c(-c3ccccc3)n[nH]c2=S)c1	-4	21	nt	2.7	nt	nt	nt	nt	-5	-2
COc1cc(NC(=O)c2ccc(NS(=O)(=O)c3c(C)noc3C)cc2)cc(OC)c1	-6	-1	nt	1.6	nt	nt	nt	nt	1	1
Cc1ccc(NC(=O)COC(=O)CN2CCCCCC2=O)c(C)c1	nt	-1	i	nt	1.9	8	2	-0.5	nt	1
CCCc1nnc(NC(=O)Nc2ccc(OC)cc2)s1	-9	nt	i	0.3	-19	-10	-3	-4.6	-15	-13
CNC(=O)c1ccccc1Sc1ccccc1C#N	-29	nt	i	5.6	-1.9	13	-1	-1.9	-12	-4
CCOc1cc(NC(=O)c2ccccn2)c(OCC)cc1NC(=O)c1ccc(OC)cc1	21	-26	i	-0.9	0.9	12	18	4.0	8	0
COC(=O)c1ccc(OC(=O)CCN2C(=O)C3CCCCC3C2=O)cc1 (stereo not drawn)	-6	3	nt	2.8	nt	nt	nt	nt	-9	-4
CCCCOC(=O)c1ccc(O)cc1	-26	-12	i	3.1	-3.0	0	10	12	-7	-1
CCCCn1c(SCC(=O)NC2CCS(=O)(=O)C2)nc2cc(S(N)(=O)=O)ccc21 (stereo not drawn)	-21	-10	i	-1.7	-0.3	nt	nt	nt	-4	-3
COc1ccc(NC(=O)NC2(C(=O)N3CCCCCC3)CCCCC2)cc1	6	-5	nt	-5.1	nt	nt	nt	nt	-11	-6
Cc1onc(-c2c(Cl)cccc2Cl)c1C(=O)c1c[nH]c(C(=O)NCC2CCCO2)c1 (stereo not drawn)	-6	nt	i	-1.6	-0.6	1	-4	-1.7	1	-1
C=CCN(c1ccccc1)S(=O)(=O)c1cccc(C(=O)NCc2ccncc2)c1	2	1	i	0.1	1.4	-14	-18	-1.6	-1	0
CC(C)C(=O)N1CCN(c2ccccc2N)CC1	-7	99*	i	6.0	1.8	8	6	0.8	-16	-7
CCN1C(=O)C(CC(=O)Nc2cccc(C(C)=O)c2)S/C1=N\c1ccccn1 (stereo not drawn)	-9	0	i	0.3	-0.7	17	15	7.1	-1	2
CC(C)c1ccccc1NC(=O)Nc1ccc2c(c1)OCO2	-2	2	i	3.3	-1.9	-4	3	0.2	-3	1
O=C(NC1CCN(C(=O)N2CCOCC2)CC1)c1ccccc1	-1	-3	nt	4.8	nt	nt	nt	nt	0	-5
Cc1ccc(S(=O)(=O)N(C)CC(=O)Nc2ncccc2C)cc1	-8	-9	i	3.5	3.4	7	15	-0.2	-2	-8
COc1ccccc1N1CCSC1C(N)=O (stereo not drawn)	-28	30	nt	2.1	nt	nt	nt	nt	1	0
N#Cc1ccc(NC(=O)C2CC(c3ccc(F)cc3)=NO2)cc1 (stereo not drawn)	35	nt	nt	-2.0	nt	nt	nt	nt	-16	-3
N#Cc1ccc(OCc2cccc(S(=O)(=O)N3CCOCC3)c2)cc1	3	-6	i	-4.8	-0.5	-5	-7	-1.5	6	4
CCOC(=O)/C(=C\Nc1ccc(OC(F)(F)F)cc1)Sc1ncc(C(F)(F)F)cc1Cl	16	26	nt	-3.0	nt	nt	nt	nt	1	17
COc1cc2c(cc1OC)C(=O)Cc1ccc3c(c1CN(C)CC2)OCO3	0	-2	i	0.5	-0.5	3	2	-9.6	0	-4
CCOc1ccc(CN2CCNC(=O)C2CC(=O)NCCc2cnccn2)cc1 (stereo not drawn)	-7	-3	i	1.1	2.6	11	7	2.8	-18	-3
CC(C)CCNC(=O)c1onc(CSc2ccccn2)c1C(=O)NCCC(C)C	34	48	nt	-1.0	nt	nt	nt	nt	-6	1
CC1SC(C)C(=O)N(CC(=O)NCc2ccc(F)cc2)C1=O (stereo not drawn)	-16	2	i	-2.9	-0.4	8	7	2.2	-15	-5
Cn1cc(CN2CCC[C@H]2CO)c(-c2cccc(Cl)c2)n1	-4	nt	i	110*	-1.0	10	12	-1.4	1	-3
CCCCN1c2ccccc2N(CCCO)c2cc(C)nnc21	-3	6	nt	3.6	nt	nt	nt	nt	-3	nt
Cc1c(NC(C)c2cc(Cl)ccc2O)c(=O)n(-c2ccccc2)n1C (stereo not drawn)	-36	91*	nt	0.9	nt	nt	nt	nt	-2	0
COc1cccc(C2Nc3ccc4ccccc4c3C3=C2C(=O)CC(C)(C)C3)c1OCC(=O)O (stereo not drawn)	-11	52	i	6.3	-9.7	-23	-21	-2.7	10	5
COC(=O)c1c(NS(=O)(=O)c2cccs2)sc2c1CCCC2	-18	9	nt	-14	nt	nt	nt	nt	45	-1
CCOC(=O)c1c(C)[nH]c(C)c1S(=O)(=O)NCC(=O)Nc1ccccn1	-16	-4	i	4.1	2.1	6	15	3.8	-3	-3
Remaining list, next part.
SMILES	T cruzi repl	ALR H2O2 inh	FGF22 binding	RanGTP-Imp inh	AF4-AF9 inh	rRNA inh HTS	rRNA inh HTS OD600	rRNA inh HTS RFP	Calb FLC	Beta apoptosis
CCOc1ccc(NC(=O)CN(C)C(=O)c2cc(S(=O)(=O)N3CCCCC3)ccc2C)cc1OCC	-4	-2	i	?	0.7	4	-11	3.6	-2	-10
CC(C)CC1Nc2ncnc(N3CCOCC3)c2N(Cc2ccccc2)C1=O (stereo not drawn)	nt	17	i	nt	2.3&0.1	-6&17	4&10	-1.2&3.2	nt	-10
CN(CC(=O)Nc1ccccc1Cl)C(=O)COC(=O)/C=C/c1ccccc1	-4	14	i	3.9	-7.5	2	2	-1.6	2	0
COc1cc(C(=O)OCC(=O)Nc2cccc(S(=O)(=O)N3CCOCC3)c2)ccc1OCC(C)C	9	3	i	nt	0.6	7	12	-1.1	-2	-1
C=CCn1c(=O)c(C(=O)Nc2cccnc2)c(O)c2ccccc21	-8	0	nt	-3.3	nt	nt	nt	nt	?	-2
CCn1cc(/C=C/C(=O)c2ccc(O)cc2)c(C)n1	-16	-57	i	-0.6	0.3	-8	-15	0.9	4	0

Record cards, from the list above. Values in the order: T cruzi repl | ALR H2O2 inh | FGF22 binding | RanGTP-Imp inh | AF4-AF9 inh | rRNA inh HTS | rRNA inh HTS OD600 | rRNA inh HTS RFP | Calb FLC | Beta apoptosis
CCOc1ccc(NC(=O)CN(C)C(=O)c2cc(S(=O)(=O)N3CCCCC3)ccc2C)cc1OCC in the list: -4 | -2 | i | ? | 0.7 | 4 | -11 | 3.6 | -2 | -10
C=CCn1c(=O)c(C(=O)Nc2cccnc2)c(O)c2ccccc21 in the list: -8 | 0 | nt | -3.3 | nt | nt | nt | nt | ? | -2
CC(C)CC1Nc2ncnc(N3CCOCC3)c2N(Cc2ccccc2)C1=O (stereo not drawn) in the list: nt | 17 | i | nt | 2.3&0.1 | -6&17 | 4&10 | -1.2&3.2 | nt | -10

These rows are one share of the data; rates above refer to the full screens.
